AID504770: growth inhibition of E. coli YBA685, primary screen, V. cholerae RctB inhibitors | AID 504770, 2011 | z-score (test concentration not listed) | 0.27% of 130,000 active | E. coli YBA685 rctB-dependent plasmid, OD600 growth, 3 h; hits give low values;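 active = z-score under -2 on both plates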;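 note: wells of about 30 µL received 100 nL stock; score is relative to mean and SD of the test wells; the first replicate is given; strong numbers were not always called active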
Ba CapD inh: Bacillus anthracis CapD inhibitors, primary screen, biochemical, fluorescence intensity; AID 492967, 2010; purified CapD enzyme, fluorescence intensity read-out; hits give low values; some hits fall short of the stated cut; CapD gamma-glutamyltranspeptidase (Bacillus anthracis Ames Ancestor); 0.23% of 140,000 active; z-score (concentration not given with the values);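 active = z-score under -4 in either of two replicates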;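 note: stock transfer was 100 nL into about 40 µL; score is relative to mean and spread of the plate; one replicate is shown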
* = called active by the depositor; . = no result given.

Compound | AID504770 | Ba CapD inh
CC1=C(C(=O)OCc2ccc(C)cc2)C(c2ccccc2OCc2ccccc2)NC(=O)N1 (stereo unspecified) | . | 0.57
COC(=O)Nc1cccc(Cl)c1 | -1.7 | -0.58
COc1ccccc1-c1coc2cc(OC(=O)c3cncc(Br)c3)ccc2c1=O | . | -0.12
CN(Cc1ccccc1)c1ncnc2onc(-c3cccc(Cl)c3)c12 | 0.35 | 0.95
O=C(C[n+]1ccccc1)Nc1ccccc1C(=O)O | -0.6 | -0.14
COc1cc2c(cc1NC(=O)C(C)NCCc1ccc(F)cc1)oc1ccccc12 (stereo unspecified) | -0.2 | .
Cc1ccc(NC(=O)CSC2CCS(=O)(=O)C2)cc1Cl (stereo unspecified) | 2 | .
C/C(=N\N=C(/N)SC1CC(=O)N(C)C1=O)c1ccc(F)cc1 (stereo unspecified) | 1.9 | -0.65
C=CCc1cccc2cc(NC(C)=O)c(=O)oc12 | -0.2 | .
CN(C)CCN1CCN(S(=O)(=O)c2ccc(Br)cc2)CC1 | . | 0.53
Cc1cc(OCC(=O)N(C(C)C)C(C)C)cc(C)c1Br | 1.8 | -0.74
CC1CCc2c(oc3c2cc(NS(=O)(=O)c2ccccc2)c2ccccc23)C1 (stereo unspecified) | . | 0.34
COc1cc(CCNC(=O)c2cnn3ccccc23)cc(OC)c1OC | 0.85 | 11
O=C(COc1ccc(S(=O)(=O)N2CCOCC2)cc1Cl)N1CCOCC1 | 0.65 | .
FC(F)(F)c1cc(C(F)(F)F)n2[nH]c(=S)nc2n1 | -0.3 | -1.1
Cc1ccccc1NC(=O)COC(=O)c1ccccc1C(=O)c1ccccc1 | -0.85 | -0.62
CCc1cccc2c1=NC(=O)C=2c1sc(N)nc1O | 0.4 | 0.15
O=C(O)[C@H]1CCCC[C@H]1C(=O)NCCc1ccccc1 | -0.4 | 0.69
COc1ccc(C2CC(=O)C3=C(C2)NC(C)=C(C(=O)OCc2ccccc2)C3c2ccc3c(c2)OCO3)cc1 (stereo unspecified) | . | 22
COc1ccc(-c2nc3ccccc3[nH]2)cc1OC | -0.1 | 42

Rewritten with two lines to a compound: entries from further up
Below each SMILES – AID504770 | Ba CapD inh
C/C(=N\N=C(/N)SC1CC(=O)N(C)C1=O)c1ccc(F)cc1 (stereo unspecified)
  1.9 | -0.65
O=C(O)[C@H]1CCCC[C@H]1C(=O)NCCc1ccccc1
  -0.4 | 0.69
COc1ccccc1-c1coc2cc(OC(=O)c3cncc(Br)c3)ccc2c1=O
  . | -0.12

(next part)
Compound | AID504770 | Ba CapD inh
CC1(C)C(=O)Nc2ccccc2N1C(=O)CSc1nnc(COc2ccccc2Cl)o1 | 0.8 | .
CC1CCCCN1CCCNC(=O)c1ccc(Br)cc1 (stereo unspecified) | -0.65 | .
O=c1[nH]c2ccc(S(=O)(=O)Nc3ccccc3)cc2o1 | -0.35 | .
O=C(Cn1ncc2c([nH]c3ccccc32)c1=O)NCC1CCN(Cc2ccccc2F)CC1 | -1.4 | 1.5
COc1ccc(C(=O)N2CCn3c2nc2ccccc23)cc1 | 0.25 | 0.26
CCN(CC)c1ccc(/C=C/C23NC(=O)CCN2c2ccc(C)cc2C3(C)C)cc1 (stereo unspecified) | . | -0.29
O=C(c1ccco1)N(Cc1ccccc1)Cc1ccccc1 | 1.2 | -0.35
CC(C)(C)c1ccccc1N1C(=O)C=CC1=O | -1.6 | -0.015
N#CC(C(=O)Nc1ccccc1)=C1Nc2ccccc2N1 | -0.1 | 15
Cn1cnnc1SCC(=O)N1CC2(C)CC1CC(C)(C)C2 (stereo unspecified) | 0.4 | 0.4
CCN1CCN(CC(=O)c2ccccc2Br)CC1 | -0.95 | .
CCC(Sc1nc2ccccc2c2nc3ccccc3n12)C(=O)NCc1ccco1 (stereo unspecified) | 0.05 | 0.3
Cc1ccccc1-n1[nH]c(C)c(C=Nc2ccc([N+](=O)[O-])cc2Cl)c1=O | . | -1.5
CCOc1ccc(C(=O)n2cnc3cc(C)c(C)cc32)cc1 | -0.6 | -0.24
CCc1cc2c(=O)n(Cc3ccccc3)c(SCc3c(C)noc3C)nc2s1 | 0.6 | .
COc1ccc(CCCOC(=O)N2CCN(c3ccccc3C)CC2)cc1 | . | 0.01
CCc1nn(C(C)C(=O)NC)c(=O)c2cc3occc3n12 (stereo unspecified) | 0.25 | 0.28
CC(C)N(C(=O)Cn1cc(S(=O)(=O)CC(N)=O)c2ccccc21)C(C)C | -0.85 | .
CC1CCCCN1C(=O)CN1CCN(C)CC1 (stereo unspecified) | -0.35 | .
O=C(/C=C/c1ccco1)NNC(=O)OCCN1C(=O)c2ccccc2C1=O | . | -1.4
CCOC(=O)c1c(NC(C)=O)sc2c1CCCNC2=O | 1.1 | -0.12
Cc1ccc(-c2cc(C(F)(F)F)n3nc(C(=O)N(C)Cc4ccccc4)cc3n2)cc1 | -0.1 | 7
CCCNC(=O)c1ccc(-c2nn(C)c(=O)c3ccccc23)cc1 | -0.45 | 0.005
COc1ccc(C(=O)Cn2ccsc2=NC(C)=O)cc1 | -0.1 | .
CCOC(=O)/C=C1\SCC(=O)N1CCOc1cccc(Br)c1 | 0.7 | .
CCCCOC(=O)Nc1ccc(N(C)C)cc1 | -0.35 | 0.99
Cc1nc(S(=O)(=O)N2CCC(NC(=O)c3ccccc3)CC2)cn1C | -0.25 | -1.6
COC(=O)c1noc(-c2ccccc2)n1 | 0.6 | 0.025
O=C(O)CSc1cccc2cccc(Cl)c12 | . | -0.3
Cc1ccc(S(=O)(=O)CCC(=O)N2CCN(c3ccccc3)CC2)cc1 | -0.85 | -1.1
COc1ccc(S(=O)(=O)Nc2cccc3cc(C(=O)N4CCc5ccccc5C4)[nH]c23)cc1 | . | -0.23
COc1ccc(OC)c(S(=O)(=O)NCc2c(F)cccc2Cl)c1 | . | -0.42
CC1(C(=O)Nc2nccs2)Cc2ccccc2C(=O)O1 (stereo unspecified) | 0.9 | 0.39
CCN(c1ccccc1)c1nc2nonc2nc1NCCO | . | -3.5
CCOc1ccc(NC(=O)CSc2nc3ccccc3c(=O)n2Cc2ccc3c(c2)OCO3)cc1 | . | -0.36
O=C(CSc1nc2ccccc2o1)Nc1ccc(Br)cc1 | . | -0.41
COc1ccc(Nc2n[nH]c(N)n2)cc1 | -0.05 | 0.14
CCCCN1C(=O)NC(C(F)(F)F)(C(F)(F)F)C2=C1CC(C)(C)CC2=O | -2.2 | -1.1
Cc1nn(CC(=O)NC2CCCC2)c2ccccc12 | -2.2 | -0.41
c1ccc(CN2CCC(N3CCN(C4CCCCC4)CC3)CC2)cc1 | -0.05 | .

Taken from the results shown for reference:
Compound | AID504770 | Ba CapD inh
CCOc1ccc(NC(=O)CSc2nc3ccccc3c(=O)n2Cc2ccc3c(c2)OCO3)cc1 | . | -0.36
O=C(CSc1nc2ccccc2o1)Nc1ccc(Br)cc1 | . | -0.41

Other compounds follow:
Compound | AID504770 | Ba CapD inh
c1ccc(NCCNc2ccccc2)cc1 | . | -0.19
CCN(CC)S(=O)(=O)c1ccc(-c2nnc(SCC(=O)O)n2CC)cc1 | -0.1 | .
Cn1cnc2c(cnn2-c2ccc(F)cc2)c1=O | 0.45 | 1.7
CCN(CC)c1ccc(C2Nc3cccc4cccc(c34)N2)c(O)c1 | . | 17
Cc1nc2c3ccccc3nc(SCc3cccc(C(F)(F)F)c3)n2n1 | 0.15 | 1.8
Cc1cc(NNC(=O)c2ccccc2)nc(NNC(=O)c2ccccc2)n1 | 0.2 | .
COc1ccccc1C(NC(=O)c1cccnc1)c1cc(Cl)c2cccnc2c1O (stereo unspecified) | . | 0.55
CC(C)(C)NC(=O)c1cccs1 | 1.5 | 0.085
Cc1cccc(NC(=O)CSc2nnc(CSc3nc(C)cc(C)n3)o2)c1 | 0.3 | .
Cc1cc(C)cc(-n2c(=O)c3oc4ccccc4c3n(CC#N)c2=O)c1 | -0.25 | 2.2
CCC(=O)c1c(-c2ccccc2)nc2n(CCN(CC)CC)c3ccccc3n12 | -1.2 | -0.72
O=C(CSc1nc2cc(C(=O)NCC3CCCO3)ccc2c(=O)n1CC1CCCO1)NCc1ccco1 (stereo unspecified) | . | 1.4
CC(=O)OC1=C(C(=O)c2ccccc2)C(c2ccccc2)N(c2ccccn2)C1=O (stereo unspecified) | 0.65 | -0.07
O=C1CCCC/C1=C/Nc1ccc(Br)cc1F | -0.1 | -0.99
N#CC1=C(N)Oc2n[nH]c(-c3ccc4c(c3)OCO4)c2C12C(=O)N(CC(=O)O)c1ccccc12 (stereo unspecified) | . | 0.51
Cc1nc2oc3ccc(F)cc3c(=O)c2cc1C(=O)NCc1ccc(Cl)cc1 | . | -0.36
Cc1cc(Oc2cc(C)c(Cl)c(C)c2)c2ccccc2n1 | . | -0.35
Cc1ccc(O)c(-c2cc(C(F)(F)F)no2)c1 | -0.95 | 22
O=C(NCC1CCCO1)c1cc2ncc(Br)cn2n1 (stereo unspecified) | -0.7 | 0.04
COc1cccc(NC(=O)CCNc2ccccc2C)c1 | -0.3 | .
CCCN1CC=C2C(C#N)=C(N)C(C#N)(C#N)C(C(C)C)C2C1 (stereo unspecified) | 0.9 | .
COc1ccccc1OCc1ccc(C(=O)Nc2ccccc2Cl)o1 | -0.25 | -0.12
CSc1nc(-c2ccc(Cl)cc2)nn1C(=O)N(C)C | 0.75 | 9.8
CCOc1nc(Cl)nc(N(C2CCCCC2)C2CCCCC2)n1 | 1.4 | .
Cc1ccc(C)c2[nH]c(=O)c(CCNC(=O)c3ccc4c(c3)OCO4)cc12 | -0.45 | 1.7
Cc1cc(C)cc(OCc2ccc(C(=O)NN)o2)c1 | -0.3 | -0.005
CCOc1ccc2c(c1)-c1c(ssc1=Nc1ccc(NC(C)=O)cc1)C(C)(C)N2 | -0.25 | -0.05
Cc1cc(OC(=O)N(C)C)cc(C)c1Cl | 0.7 | -0.28
CCN1C(=O)/C(=C\c2ccc(-c3ccc(Br)cc3C(=O)O)o2)N(CC)C1=S | 0.25 | -0.85
O=C(c1cc2c(c3ccccc13)NC1CCC2(C(F)(F)F)O1)C(F)(F)F (stereo unspecified) | 0.5 | .
Cc1ccc(C(=O)Nc2c(N)nc(SCC(=O)N3CCCc4ccccc43)[nH]c2=O)cc1 | 0.25 | .
COc1ccccc1NC(=O)Nc1ccccc1OC | 1.2 | -1.7
CC(=O)Oc1ccc(C(=O)N2CCc3ccccc3C2)cc1 | -0.75 | -0.33
COc1cc(/C=C2/SC(=S)N(CC(=O)O)C2=O)cc(OC)c1OC | . | -1.5
O=C(CCC(=O)N1CCc2cc(F)ccc21)NC1CCSC1=O (stereo unspecified) | . | -0.045
O=C(NCCc1ccccc1)c1ccc2nc[nH]c2c1 | 0.45 | 0.17
O=c1cc(CSc2nc3ccccc3o2)[nH]c(=S)[nH]1 | 0.05 | -0.95
CCC1CCCCN1CN1C(=O)c2cc(Cl)c(Cl)cc2C1=O (stereo unspecified) | 1.2 | .
COc1ccc(-n2nc3c(c2NC(=O)c2cc(Br)ccc2Cl)CS(=O)(=O)C3)cc1 | . | -0.91
CCOC(=O)CN1C(=O)CC(c2ccccc2)C1=O (stereo unspecified) | 0.1 | -0.16

Copied from the list:
Reading of `COc1ccc(-n2nc3c(c2NC(=O)c2cc(Br)ccc2Cl)CS(=O)(=O)C3)cc1` in Ba CapD inh: -0.91
Reading of `N#CC1=C(N)Oc2n[nH]c(-c3ccc4c(c3)OCO4)c2C12C(=O)N(CC(=O)O)c1ccccc12` (stereo unspecified) in Ba CapD inh: 0.51
Reading of `CSc1nc(-c2ccc(Cl)cc2)nn1C(=O)N(C)C` in Ba CapD inh: 9.8
Reading of `C/C(=N\N=C(/N)SC1CC(=O)N(C)C1=O)c1ccc(F)cc1` (stereo unspecified) in Ba CapD inh: -0.65
Reading of `CCN(c1ccccc1)c1nc2nonc2nc1NCCO` in Ba CapD inh: -3.5

Remaining list, next part
Compound | AID504770 | Ba CapD inh
COCC(C)NS(=O)(=O)c1c(C)cc(C)cc1C (stereo unspecified) | -0.25 | -0.025
COc1ccc(C2=NN(S(=O)(=O)c3ccc(C)cc3)C(c3ccc(OC)cc3)C2)cc1 (stereo unspecified) | . | 0.46
C=CCc1ccc(O)c(OC)c1 | 0.65 | -10*
FC(F)(F)c1cc(-c2ccc3ccccc3c2)no1 | -0.05 | 9.7
COc1cc(/C=C2/SC(=Nc3ccccc3)NC2=O)cc(OC)c1OC | . | 1.6
Nc1nc(-c2ccc3c(c2)OCO3)cc(C(F)(F)F)n1 | . | 24
CCC(=O)Nc1cccc(C(=O)N/N=C/c2ccc(OCCCN(C)C)cc2)c1 | . | -0.93
COc1ccccc1NC(=O)C(C)OC(=O)c1cccc(-n2cnnn2)c1 (stereo unspecified) | -2 | .
COc1ccc(C2NCCc3c2[nH]c2ccccc32)cc1OC (stereo unspecified) | . | -0.31
O=c1[nH]c(-c2ccco2)nc2sc3c(c12)CCCC3 | -0.3 | 10
COc1ccc(C(=O)COc2ccccc2)c(OC)c1 | -0.2 | -0.52
OC(CN1CCN(c2ccccc2)CC1)C(F)(F)F (stereo unspecified) | -0.1 | -0.27
COc1cc(C(=O)OC(C)C(=O)N2CCCc3ccccc32)ccc1OCc1c(C)noc1C (stereo unspecified) | 0.55 | .
COc1ccc(-c2csc(-n3[nH]c(C)c(C(c4ccc(Cl)cc4)C(C#N)C(N)=O)c3=O)n2)cc1 (stereo unspecified) | 0.55 | -0.14
CN(c1ccc(OCC(=O)N2CCOCC2)cc1)S(=O)(=O)c1ccc(F)cc1 | -1.2 | .
CC1=Nn2c(nnc2-c2ccc(Cl)cc2)SC1 | 0.55 | 1.4
S=C(NCc1ccc2c(c1)OCO2)Nc1ccccc1 | 1.8 | .
CS(=O)(=O)NCc1nnc(SCC(=O)NC2CCCCC2)n1-c1ccc(F)cc1 | -0.25 | .

High-throughput results (PubChem)
